# Assay outcomes as filed in PubChem BioAssay.
# PKD1 kinase inh: inhibitors of human PKD1 kinase. Q15139. PKD1 kinase fluorescence polarization assay. inhibition, %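 (about 10 µM by stock and volumes)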. 200,000 tested, 0.056% active. AID 797;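 active = inhibition of 50% or more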;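 also: controls were vehicle for no effect and a reference inhibitor for full effect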
# Insulin prom inh: TRM-6 insulin promoter activity inhibition; TRM-6 cells (human fetal islet line), insulin promoter-eGFP reporter, imaging; reporter expression induced with tamoxifen; inhibition, % at 2 µM; 130,000 tested, 0.9% active;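 active = inhibition above the mean plus 3 SD, with well images judged a real hit on visual review, cut at about 60% in these data, passing the limit was not always enough; inconclusive = inhibition over the cutoff but images rejected on review; inactive = inhibition not above the cutoff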
# HSV replic up: increases HSV replication in cells. HSV replication augmentation in cells, fold increase. maximum fold increase. 220,000 tested, 0.005% active. AID 1956;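 active = peak rise of 1.5-fold or more in the series; inconclusive = self-fluorescent or not available for retest; tested in PC3 cells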;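 also: first round at 10 µM; read as green reporter fluorescence; hits show the peak of a series up to 25 µM; 1 = signal of infected wells without compound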
# GALR2 ag: agonists of human galanin receptor 2 (GALR2); activation, %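 (tested at 5 µM)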; AID 803; GALR2-expressing cells, agonist activation read-out; 140,000 tested, 0.48% active; O43603;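 active = above mean plus 3 SD of all compounds, about 5% in these data, not always enough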;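 also: 0% = vehicle buffer wells and 100% = reference agonist at full effect; tested in CHO reporter cells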
# Target sequence (O43603 whole entry, looked up): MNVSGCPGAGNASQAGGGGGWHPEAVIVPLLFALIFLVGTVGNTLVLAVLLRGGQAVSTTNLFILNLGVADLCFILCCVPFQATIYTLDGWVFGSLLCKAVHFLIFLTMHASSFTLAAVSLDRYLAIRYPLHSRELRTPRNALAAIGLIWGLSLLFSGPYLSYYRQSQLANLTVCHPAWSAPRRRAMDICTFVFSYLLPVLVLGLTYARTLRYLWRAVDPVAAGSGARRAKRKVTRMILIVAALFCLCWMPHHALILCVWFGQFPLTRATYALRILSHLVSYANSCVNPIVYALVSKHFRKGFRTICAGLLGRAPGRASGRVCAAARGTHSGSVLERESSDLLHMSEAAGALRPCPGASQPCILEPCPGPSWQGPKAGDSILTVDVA
# RGS16-Gao HTS: regulators of human RGS16-Galphao interaction. AID 1441. 220,000 tested, 0.38% active. O15492+P09471. bead-based flow cytometry RGS16-Galphao binding, fluorescence; actives lie on both sides. binding response (% of control), % at 10 µM;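 active = below 25% or above 175%, edge rows of some plates excepted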;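 also: Galphao activated by GDP with aluminum fluoride before binding; 100% = wells without compound and 0% = beads without RGS; some results beyond the cut were filed as inactive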
# Target sequence (O15492 whole entry, looked up): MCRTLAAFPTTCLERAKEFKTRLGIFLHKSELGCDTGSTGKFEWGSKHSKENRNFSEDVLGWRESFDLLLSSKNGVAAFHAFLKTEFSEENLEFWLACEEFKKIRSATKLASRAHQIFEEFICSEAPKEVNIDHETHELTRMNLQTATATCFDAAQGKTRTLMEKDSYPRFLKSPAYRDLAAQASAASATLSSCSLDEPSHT
# Target sequence (P09471 whole entry, looked up): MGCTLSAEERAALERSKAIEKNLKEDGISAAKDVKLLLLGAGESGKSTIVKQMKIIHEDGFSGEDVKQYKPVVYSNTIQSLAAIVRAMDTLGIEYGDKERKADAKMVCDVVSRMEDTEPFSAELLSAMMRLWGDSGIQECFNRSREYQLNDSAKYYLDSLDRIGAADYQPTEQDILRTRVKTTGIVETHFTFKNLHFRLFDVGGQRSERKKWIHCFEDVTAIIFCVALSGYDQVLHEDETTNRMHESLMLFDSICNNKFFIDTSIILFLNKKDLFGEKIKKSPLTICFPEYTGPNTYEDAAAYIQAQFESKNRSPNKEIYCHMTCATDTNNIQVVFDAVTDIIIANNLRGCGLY
# Insulin prom inh cell count: second read-out of Insulin prom inh, no call of its own (marks repeat the call); normalized cell count, %; measured here: cell count, toxicity; reference of the scale not given here;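 cells exposed to compound for 48 h; stained nuclei by imaging scaled within each plate; lower means fewer cells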
# HSV replic up primary fold: further read-out of HSV replic up, marked with its call; fold increase; compound at 10 µM; measured here: primary screen fold increase 10 uM; tested in PC3 cells;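 GFP signal in the first replicate; 1 = infected wells without compound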
# An asterisk follows results filed as active; i = inactive; ? = inconclusive; . = not tested or not shown; & = joins results of further samples.
# Order of results: PKD1 kinase inh	Insulin prom inh	Insulin prom inh cell count	HSV replic up	HSV replic up primary fold	GALR2 ag	RGS16-Gao HTS
- C=CCc1ccc(OCC(O)CN2CCCCC2)c(OC)c1 (centres undefined)
    -19	-117	130	i	1.1	-1.6	103
- CCn1cnc2cc(NCc3ccc(C)cc3)ccc21
    -7	62	89	i	0.85	0.8	95
- CCCCc1nc2sc3c(c2c(=O)[nH]1)CCC3
    3	.	.	i	0.98	-0.9	101
- Cc1onc(-c2c(Cl)cccc2Cl)c1CO/N=C(\C#N)c1c(Cl)cccc1Cl
    .	.	.	i	1.1	.	98
- CCOC(=O)N/N=C/c1ccc(OC)c(O)c1
    3	14	74	i	0.99	.	110
- CCOc1ccccc1CNCc1ccc(F)cc1
    -8	.	.	i	0.91	.	96
- Cc1ccc(C2N=C(N)Nc3nc4ccccc4n32)cc1 (centres undefined)
    -4	-50	135	i	1	.	99
- COc1ccc(C(=O)NC2CCCCCC2)cc1S(=O)(=O)N1CCCC1
    -2	11	124	i	0.98	.	100
- O=C(O)/C=C/C(=O)NC1CCC(CC2CCC(NC(=O)/C=C/C(=O)O)CC2)CC1 (centres undefined)
    -6	.	.	i	0.99	.	102
- CCC1(c2ccc(F)cc2)NC(=O)N(CC(=O)c2ccc[nH]2)C1=O (centres undefined)
    -3	12	82	i	1.1	-1.7	101
- COc1ccc(CCNC(=O)CSc2nc(-c3ccco3)cc(C(F)(F)F)n2)cc1OC
    1	36	92	i	0.81	2.3	104
- C/C=C\C(=O)Nc1cccc(C2=NOC3(C2)C[C@@H](C(N)=O)N(C(=O)c2ccc(Cl)cc2)C3)c1 (some centres undefined)
    .	.	.	i	1.1	.	101
- COc1ccc(OC)c2[nH]c(=O)c(CCNS(=O)(=O)c3ccc(C)cc3)cc12
    5	27	101	.	.	-0.7	99
- O=C(c1ccccc1)c1ccc(OCC(O)CN2CCOCC2)cc1 (centres undefined)
    -2	-233	85	i	1	-0.2	.
- Cc1noc2ncnc(Oc3ccc(Cl)cc3Cl)c12
    -4	-15	116	i	0.84	.	104
- CCOC(=O)c1cnc(NCc2ccccc2)nc1C
    -9	28	127	i	0.79	-1.6	99
- CCOC(=O)c1cnn(Cc2cccc(Cl)c2)c1C
    -7	-12	100	i	0.89	.	102
- Cn1c(-c2sc3cc(C(F)(F)F)cnc3c2-c2cccnc2)n[nH]c1=S
    0	6	148	i	0.92	0.2	105
- CCOC(=O)N1CCC(N2Cc3cccc(C(=O)N4CCN(c5cccc(C)c5C)CC4)c3C2=O)CC1
    -12	-27	95	i	0.76	.	102
- COCCn1c(SC2CCOC2=O)nc2ccccc2c1=O (centres undefined)
    -7	.	.	i	0.98	.	94
- Cc1cc(C)c(C)c(S(=O)(=O)NNC(=O)c2cccc(S(=O)(=O)N3CCOCC3)c2)c1C
    -2	-3	122	i	0.83	0.6	107
- Cc1cc2nnc(SCC(=O)Nc3cc(S(=O)(=O)N4CCOCC4)ccc3Cl)n2c2ccccc12
    12	-52	133	i	0.91	0.8	104
- C[C@]12CC(O)C3C(CCC4=CC(=O)CC[C@@]43C)C1CCC2c1csc(-c2ccccc2)n1 (some centres undefined)
    .	.	.	i	0.88	.	100
- C/C(CC(=O)Nc1ccc(Cl)c(C(F)(F)F)c1)=N\NC(=O)c1cccc(O)c1
    -5	-16	74	i	0.99	-0.8	118
- c1ccc(N2CCN(c3ccccc3)C2c2cccs2)cc1
    2	.	.	i	0.83	-1.7	106
- COc1ccc(/C(C)=N/Nc2ncc(Cl)cc2Cl)c(O)c1
    -3	29	120	i	0.76	-0.9	110
- Cc1cccc(NC(=O)CC2S/C(=N/c3nccs3)N(C)C2=O)c1 (centres undefined)
    1	-17	79	i	1	-1.3	106
- CCN(CC)c1ncn(Cc2c(Cl)cccc2Cl)c2ncnc1-2
    2	5	120	i	1	-0.5	97
- CCCNC(=O)C1CCN(S(=O)(=O)c2ccc(Br)cc2)CC1
    -8	-38	63	i	0.79	-1.7	103
- CCN(C(=O)Nc1ccccc1OC)c1c(N)n(Cc2ccccc2)c(=O)[nH]c1=O
    4	4	145	i	0.98	-2.7	101

# Part of the list above, as tab-separated lines.
Compound	PKD1 kinase inh	Insulin prom inh	Insulin prom inh cell count	HSV replic up	HSV replic up primary fold	GALR2 ag	RGS16-Gao HTS
C/C(CC(=O)Nc1ccc(Cl)c(C(F)(F)F)c1)=N\NC(=O)c1cccc(O)c1	-5	-16	74	i	0.99	-0.8	118
c1ccc(N2CCN(c3ccccc3)C2c2cccs2)cc1	2	.	.	i	0.83	-1.7	106
COc1ccc(/C(C)=N/Nc2ncc(Cl)cc2Cl)c(O)c1	-3	29	120	i	0.76	-0.9	110
Cc1cccc(NC(=O)CC2S/C(=N/c3nccs3)N(C)C2=O)c1 (centres undefined)	1	-17	79	i	1	-1.3	106
CCN(CC)c1ncn(Cc2c(Cl)cccc2Cl)c2ncnc1-2	2	5	120	i	1	-0.5	97
CCCNC(=O)C1CCN(S(=O)(=O)c2ccc(Br)cc2)CC1	-8	-38	63	i	0.79	-1.7	103

# Further structures follow.
# Order of results: PKD1 kinase inh	Insulin prom inh	Insulin prom inh cell count	HSV replic up	HSV replic up primary fold	GALR2 ag	RGS16-Gao HTS
- CCc1ccc(NC(=O)CCNS(=O)(=O)c2cccc3nsnc23)cc1
    -1	-61	69	i	0.89	-3.2	79
- O=C(CC1C(=O)NCCN1Cc1cccc(Oc2ccccc2)c1)NCc1cccnc1 (centres undefined)
    -4	-33	149	i	0.98	.	101
- Cc1ccccc1N1C(=O)C2C3CC(=O)C(c4ccccc43)C2C1=O (centres undefined)
    -4	-13	105	i	1.1	-1.4	106
- O=C(C(c1ccccc1)c1ccccc1)N1CCN(Cc2ccc(Br)cc2)CC1
    -2	7	34	i	0.85	-2.1	103
- O=C1N(Nc2ccccc2)C(c2ccc(Br)cc2)C12CCCCC2 (centres undefined)
    -1	-123	109	i	1.1	-1.4	104
- CC(=O)c1ccc(NC(=S)Nc2ccc(N3CCOCC3)cc2)cc1
    -4	.	.	i	0.89	.	100
- COc1cccc2c3c(c(=O)[nH]c12)CCC(C)(C)O3
    3	23	84	i	0.89	-0.3	110
- O=C(Nc1ccc(N2CCOCC2)cc1)C1CCN(C(=O)OCc2ccccc2)CC1
    .	.	.	i	1	.	104
- COc1ccc([N+](=O)[O-])cc1N/C(=N/S(=O)(=O)c1ccccc1)c1ccccc1
    -8	-11	113	i	1	.	100
- COc1ccc(CN2C(=O)CSC2c2ccccn2)cc1 (centres undefined)
    .	.	.	i	0.96	.	101
- COc1ccc(CCNC(=O)C2=COCCO2)cc1
    -3	-64	72	i	0.94	0.4	102
- CCOc1ccc(N2C(=O)C3ON(c4ccccc4)C(c4cccs4)C3C2=O)cc1 (centres undefined)
    -6	48	125	i	1	.	100
- O=C1Nc2cc(Cl)c(Cl)cc2N(O)N1c1ccc(Cl)cc1
    -12	-8	90	i	1	-2.0	101
- COc1ccc(N(CC(=O)Nc2nc3ccc(C)cc3s2)S(=O)(=O)c2c(C)nn(C)c2C)cc1
    9	.	.	i	0.94	-2.1	106
- O=S(=O)(NCCC1CC1(Cl)Cl)c1ccc(Cl)cc1 (centres undefined)
    .	.	.	i	1.1	.	100
- CCN(CC)S(=O)(=O)c1ccc2[nH]c(=O)cc(C(=O)Nc3ccc(C)c(S(=O)(=O)N(CC)CC)c3)c2c1
    3	33	103	i	0.68	0.4	104
- O=C(O)c1ccc(-c2ccco2)n1Cc1ccccc1
    -13	.	.	i	1	-0.8	97
- COc1ccc(C(CNC(=O)COc2ccccc2OC)N(C)C)cc1OC (centres undefined)
    -6	21	68	i	1	-2.8	95
- CN1C(=O)c2cccc(NCCCCCCN3C(=O)c4ccccc4C3=O)c2C1=O
    -3	45	135	i	1.1	-2.2	119
- Cc1cccc(NC(=O)c2ccccc2OCC(=O)c2ccc(F)cc2)c1
    -9	-10	85	i	0.84	1.1	102
- Cc1c(/C=N/n2cnnc2)c2ccccc2n1C
    1	.	.	i	0.88	12*	97
- C=CCNC(=S)N1CCN(c2ccc([N+](=O)[O-])cc2)CC1
    3	.	.	i	1.1	-1.4	97
- Cc1ccc(OCc2nnc(SCC(=O)CC(=O)Nc3ccccc3)o2)cc1
    0	.	.	i	0.96	-0.6	86
- CCCCCCCCNC1=CC(=O)CC(C)(C)C1
    .	.	.	i	1	.	100
- Nc1ccc(C(=O)O)c(O)c1
    -6&-9&6	33&-5&-14	87&100&77	i	1.2&0.69	-1.3&-0.4	95&99&101
- Clc1ccccc1OCc1nnc(-c2ccccc2)o1
    -1	.	.	i	0.96	.	104
- COc1ccccc1Cn1c(/C=C/c2ccccc2)nc2ccccc21
    -4	21	67	i	1.1	-1.6	107
- C(#CCN1CCOCC1)COCCOC(c1ccccc1)c1ccccc1
    -4	-27	184	i	0.87	0.3	107
- CC(=O)c1ccc(N2CCN(S(=O)(=O)c3cccc4nonc34)CC2)cc1
    .	.	.	i	1.3	.	100
- CCOc1cc(C(=O)N2CCc3cc(OC)c(OC)cc3C2)ccc1OC(F)F
    -7	.	.	i	0.62	3.5	124

# 3 compounds from above, reduced to HSV replic up primary fold and Insulin prom inh:
SMILES,HSV replic up primary fold,Insulin prom inh
Cc1cccc(NC(=O)c2ccccc2OCC(=O)c2ccc(F)cc2)c1,0.84,-10
Cc1c(/C=N/n2cnnc2)c2ccccc2n1C,0.88,.
C=CCNC(=S)N1CCN(c2ccc([N+](=O)[O-])cc2)CC1,1.1,.

# (list continues)
# Order of results: PKD1 kinase inh	Insulin prom inh	Insulin prom inh cell count	HSV replic up	HSV replic up primary fold	GALR2 ag	RGS16-Gao HTS
- COc1cccc(/C=C2\SC(=O)N(CCC(=O)NNC(=O)c3cccc(Cl)c3)C2=O)c1
    2	32	20	i	0.88	0.4	30
- FC(F)(F)c1nc2ccccc2[nH]1
    .	.	.	i	0.9	.	107
- COC(=O)c1cn(NC(=O)c2ccc([N+](=O)[O-])cc2Cl)c(=O)c2ccccc12
    -4	.	.	i	0.9	.	102
- O=C(CSc1ncccc1C(=O)O)c1ccccc1
    8	-136	85	i	0.83	-0.4	102
- CC(C)OC(=O)c1ccc(NC(=O)c2ccccc2)cc1
    -4	-23	45	i	0.87	0.0	119
- COc1cccc(/C=N/Nc2nc3ccccc3n3cnnc23)c1O
    11	.	.	?	.	-2.2	101
- CC(=O)c1cccc(NC(=O)c2cc(-n3cnnc3)ccc2Cl)c1
    0	69	165	i	1	-1.6	101
- CCC1CCCCN1C(=O)CSc1nc(N)c(NC(=O)c2ccc(OC)c(OC)c2)c(=O)[nH]1 (centres undefined)
    0	.	.	i	0.86	-3.5	99
- COc1cc(C(=O)O/N=C2\C=CC(=O)C(C)=C2)cc(OC)c1OC
    -10	-9	62	i	1.1	-2.9	104
- COC(=O)[C@@H]1C[C@H]2CC[C@H](O)C[C@H]2N1Cc1ccc(Cl)cc1
    .	.	.	i	1.1	.	87
- NC(=O)c1sc(-c2ccsc2)cc1NS(=O)(=O)c1ccc(C(F)(F)F)cc1
    .	.	.	i	1.2	.	102
- CCN(CC)c1ccc(/C=N/N2CCN(Cc3ccc(C)cc3C)CC2)c(O)c1
    -6	-36	74	i	0.96	-0.6	98
- CC(=O)N(C)c1nnc(-c2ccccn2)s1
    1	46	135	i	0.9	-0.1	105
- Nc1ccc(C(=O)OCC(=O)NC2CCS(=O)(=O)C2)cc1[N+](=O)[O-] (centres undefined)
    .	.	.	i	0.82	.	-10*
- CN(C)CCNc1nc2sc3c(c2c(=O)n1CCc1ccccc1)CCCCC3
    .	.	.	i	0.61	.	103
- Cn1cc(Br)c(-c2cccc(NC(=O)CCC(=O)O)c2)n1
    .	.	.	i	1.1	.	101
- Cc1cccc(NC(=O)CSc2ccc(-c3ccco3)nn2)c1
    -2	-6	160	i	0.85	-2.9	93
- CC12CCC(C(=O)N(CC(O)CN3CCCCC3)C1=O)C2(C)C (centres undefined)
    5	7	72	i	1	-3.2	104
- O=C(CCCn1c(=S)[nH]c2cc3c(cc2c1=O)OCO3)N1CCN(c2ccc(F)cc2)CC1
    -14	-21	86	i	0.77	-0.8	106
- CCn1nc(C)cc1C(=O)Sc1cccc(Cl)c1
    .	.	.	i	0.76	.	92
- CC(C)(C)NC(=O)CC(c1ccccc1)c1ccccc1O (centres undefined)
    -6	10	77	i	0.95	-0.3	104

# Outcome played no part in choosing rows. About 1.3% of those tested had a hit in this group.
